Source: PubChem (ICCB-Longwood Screening Facility, Harvard Medical School)
Ba CapD inh: CapD enzyme inhibition | AID 492967 | 0.23% of 140,000 active | purified CapD enzyme, fluorescence intensity read-out; hits give low values; some hits fall short of the stated cut | z-score (no concentration beside the values);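 active means z-score under -4 in either of two replicates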;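 further: stock transfer was 100 nL into about 40 µL; score is relative to mean and spread of the plate; one replicate is shown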
AID504770: growth inhibitors of E. coli YBA685 in a screen for V. cholerae RctB (chromosome II replication) inhibitors; E. coli YBA685 rctB-dependent plasmid, OD600 growth, 3 h; hits give low values; AID 504770; z-score (concentration not given with the values); 0.27% of 130,000 active;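 active means z-score under -2 on both plates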;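 further: wells of about 30 µL received 100 nL stock; score is relative to mean and SD of the test wells; the first replicate is given; strong numbers were not always called active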
Starred values were filed as active, the others as inactive; i = inactive; . = not tested or not shown.

SMILES	Ba CapD inh	AID504770
COc1ccc(Cl)cc1C(=O)NN1C(=S)NC(C)(C)C=C1C	0.565	-0.5
NC(=O)C1CC2C=CC1C2 (stereo not drawn)	-0.115	-0.65
CCOC(=O)C1=C(C)N=c2s/c(=C\c3ccc(N4CCCCC4)o3)c(=O)n2C1c1cccc(OC)c1 (stereo not drawn)	0.37	.
Cc1ccc(-c2nc(-c3ccncc3)ncc2N=Nc2cccc(C)c2C)cc1	0.03	.
CC1=CCC23CC1C(=O)C=C2CC(C)(C)CC3=O (stereo not drawn)	-0.025	0.05
COc1ccc(NC(=O)CC2CS(=O)(=O)CC2CC(=O)Nc2ccc(OC)cc2)cc1 (stereo not drawn)	0.475	-0.05
Cc1ccc(C)c(-c2nnc(NC(=O)c3cccc(S(C)(=O)=O)c3)o2)c1	.	1.9
O=C(CSc1nc(-c2ccccc2)nc2c1CCCC2)c1ccc(O)c(O)c1	-0.61	0.35
COc1ccc(/C=C/C(=O)Nc2ccc(NC3CCCCC3)c3c2C(=O)c2ccccc2C3=O)cc1	-0.05	.
CSc1ccccc1C(=O)O	0.675	-0.55
Cn1c(=O)oc2cc(S(=O)(=O)N3CCc4ccccc4C3)ccc21	-0.865	1.6
Fc1cccc(N=Cc2ccc3c(c2)OCO3)c1	121	0.45
CC(C)Nc1nc(NC2CCCC2)nc(N2CCOCC2)n1	-0.46	-1.65
C=CCOc1cccc(C(=O)Nc2ccccc2)c1	-0.66	1.6
CCOc1ccc(NC(=O)CSc2nc3[nH]ncc3c(=O)n2-c2ccc(Br)cc2)cc1	-0.32	.
Cc1ccc(NC(=O)C(OC(=O)c2ccccn2)c2ccccc2)cc1Cl (stereo not drawn)	0.155	0.7
CCOC(=O)CSc1ncnc2sc(C)c(C)c12	0.85	-0.7
Cc1ccc(NC(=O)CCc2c(C)[nH]c(=O)c(C#N)c2C)cc1	.	0.35
O=C(CCN1CCOCC1)Nc1cc(Cl)cc(Cl)c1	-0.58	-0.25
COC(=O)C(O)(c1ccc(N(C)C)cc1)C(F)(F)F (stereo not drawn)	.	0.35
CCOc1ccccc1C1C2=C(CC(C)(C)CC2=O)Nc2ncnn21 (stereo not drawn)	1.85	.
CC(C)(Oc1ccc(Cl)cc1)C(=O)OCC(=O)Nc1ccc(Cl)cc1	-0.08	0.35
CC1=C(C)CC2C(=O)N(Cc3ccccc3)C(=O)C2C1 (stereo not drawn)	.	1.95
COc1ccc(OC)c2[nH]c(=O)c(CCNC(=O)/C=C\c3ccc4c(c3)OCO4)cc12	0.15	0.55
O=C(O)c1sc2cc(Cl)ccc2c1Cl	0.14	-1.25
Cc1cc(C(=O)COc2ccc3ccc(=O)oc3c2)c(C)n1-c1nccs1	.	0
Cc1ccc(OCC(O)CN)cc1 (stereo not drawn)	.	0.1
O=C(N/N=C/c1cc(F)c(F)cc1F)c1ccc(OC(F)(F)F)cc1	-0.085	.
CCOC(=O)N1CCN(C(=O)CN(c2ccc(Cl)cc2)S(=O)(=O)c2ccc(OC)cc2)CC1	-0.145	.
CC(CCc1ccccc1)NC(=O)c1ccc(CS(=O)(=O)c2ccc(Br)cc2)o1 (stereo not drawn)	0.945	1.35

In the list so far, these contain a CF3 group:
SMILES	Ba CapD inh	AID504770
COC(=O)C(O)(c1ccc(N(C)C)cc1)C(F)(F)F (stereo not drawn)	.	0.35
O=C(N/N=C/c1cc(F)c(F)cc1F)c1ccc(OC(F)(F)F)cc1	-0.085	.

Arranged by number of heavy atoms (falling): five of the compounds above.
SMILES	Ba CapD inh	AID504770
Cc1cc(C(=O)COc2ccc3ccc(=O)oc3c2)c(C)n1-c1nccs1	.	0
Cc1ccc(NC(=O)CCc2c(C)[nH]c(=O)c(C#N)c2C)cc1	.	0.35
CC1=C(C)CC2C(=O)N(Cc3ccccc3)C(=O)C2C1 (stereo not drawn)	.	1.95
O=C(CCN1CCOCC1)Nc1cc(Cl)cc(Cl)c1	-0.58	-0.25
CCOC(=O)CSc1ncnc2sc(C)c(C)c12	0.85	-0.7

Other entries follow.
SMILES	Ba CapD inh	AID504770
Cc1ccc(OCC(=O)NC(Cc2c[nH]c3ccccc23)C(=O)O)cc1 (stereo not drawn)	i	1.35
OCCOc1ccccc1OCCBr	-0.395	-1.1
O=S(=O)(CCN1CCN(c2ccccn2)CC1)c1ccc(Cl)cc1Cl	1.18	-0.5
N/C(=N\O)c1nccnc1Oc1cccc(C(F)(F)F)c1	-0.22	0.7
COC(=O)CCSc1ncnc2sc3c(c12)CCC3	.	0.95
O=C(c1ccc(Br)cc1)c1cnc(Nc2ccccc2)s1	0.155	.
O=c1c(Cl)c(Cl)cnn1-c1ccc(C(F)(F)F)cn1	.	1.9
O=C(O)CCc1ccc(-c2ccccc2)n1-c1ccccc1O	3.91	-0.25
CCOc1ccc(C(=O)C[n+]2ccsc2N)cc1	-0.34	-0.6
COc1ccc(Br)cc1C1C(N2C(=O)c3cccc([N+](=O)[O-])c3C2=O)C(=O)N1c1ccc(Br)cc1 (stereo not drawn)	-0.525	.
COc1ccc2c(c1)N(C)/C(=C1/OC(=S)N(C)C1=O)S2	0.505	1.8
O=C(Nc1ccc(N=Cc2cccnc2)cc1)c1ccccc1O	-1.1	1.25
Cc1cc(NC(=O)CCCN2C(=O)c3cccnc3C2=O)ccc1Br	0.66	0.05
COc1ccc(OC)c(Nc2nc3nonc3n3nnnc23)c1	-0.13	1.45
N#Cc1c(N)nc(C(F)(F)F)nc1-c1ccccc1	0.195	1.15
O=C(CSc1nc2ccccc2c(=O)n1CC1CCC(C(=O)NCc2ccccc2)CC1)Nc1nccs1 (stereo not drawn)	0.11	0.8
O=C(/C=C/c1ccccc1)Oc1ccc(-c2nnco2)cc1	.	0.25
O=C(Nc1cccc(Cl)c1Cl)c1cc(S(=O)(=O)N2CCN(c3ccccc3)CC2)ccc1F	-0.855	.
CCCC(C)C(=O)Nc1cc(C)ccn1 (stereo not drawn)	0.655	-0.9
O=C(CSc1nc2sc3c(c2c(=O)n1-c1ccccc1)CCCC3)N1CCOCC1	-0.185	.
O=S(=O)(c1ccc(F)cc1)N1CC=C(c2ccccc2)CC1	-0.435	0.5
O=C1S/C(=C\c2ccccc2)C(=O)N1CCn1cnnn1	.	-0.75
COc1ccc(C2c3c(n(C)c(=O)n(C)c3=O)N=C3c4ccccc4C(=O)C32)cc1 (stereo not drawn)	.	-0.45
CCN(CC)C(=S)Oc1ccc(Br)cc1C(=O)NCCc1ccncc1	0.41	-0.6
NC(=O)COC(=O)CCc1nc2ccccc2n1-c1ccccc1	.	-0.65
COc1ccc2c(c1)-c1c(ssc1=S)C(C)(C)N2C(=O)CSc1ncn[nH]1	-1.29	.
Cc1cccc(N(CC(=O)O)S(C)(=O)=O)c1	.	-1.1
Nc1cc(-c2cc(-c3ccccc3)c(C(F)(F)F)s2)[nH]n1	-0.19	-0.35
O=C(Nc1ccccc1O)c1ccccc1	0.475	-0.4
Cc1ccc2oc(-c3ccccc3C)nc2c1	.	1.9

Quoted at random: 3 compounds from above, in no set order.
SMILES	Ba CapD inh	AID504770
O=C(CSc1nc2sc3c(c2c(=O)n1-c1ccccc1)CCCC3)N1CCOCC1	-0.185	.
COc1ccc2c(c1)-c1c(ssc1=S)C(C)(C)N2C(=O)CSc1ncn[nH]1	-1.29	.
NC(=O)COC(=O)CCc1nc2ccccc2n1-c1ccccc1	.	-0.65

The listing continues:
SMILES	Ba CapD inh	AID504770
COc1ccc(Nc2ccc(S(=O)(=O)N3CCCC3)cn2)cc1O	.	0.1
CN1C(=O)S/C(=C/c2ccc(-c3ccc(C(=O)O)c(Cl)c3)o2)C1=O	4.98	-0.7
O=C(CNc1ccc(Br)cc1F)NCc1ccco1	.	-0.05
CCOC(=O)COc1cccc2c1CCN(Cc1ccccc1)C2=O	0.06	-1.1
COc1ccccc1NC(=O)N(Cc1nc(-c2ccc(Cl)cc2)no1)C(C)C	-0.01	0.55
O=C(CN1CCC(n2nnc3cc(F)ccc32)CC1)NCCc1ccccc1	.	1.95
O=C(CSc1nc(O)cc(=O)[nH]1)N1c2ccccc2Sc2ccccc21	-0.495	0.4
O=C(Cn1cnc2c(nnn2-c2cccc(Cl)c2)c1=O)NC1CCCCC1	0.14	-0.5
COc1ccc(OCc2nnc(SCC(=O)N(C3CCCCC3)C3CCCCC3)o2)cc1	.	-0.3
O=C(OCc1cccc(OCc2ccccc2)c1)N1CCCN(c2nc3ccc(Cl)cc3s2)CC1	-0.445	.
CN1Cc2ccc(CN3C(=O)c4ccccc4C3=O)cc2NC1=O	-0.24	-0.9
CSc1ncnc(SC)c1Br	0.615	-0.1
O=S(=O)(c1cc(Cl)ccc1Cl)N1CCC(C(c2ccccc2)c2ccccc2)CC1	-0.505	.
COCCNC(=O)c1cccc2c1-c1ccccc1C2=O	0.135	0.65
C(=N\N1CCOCC1)/c1ccc2c(c1)OCCO2	.	-1.3
CCC(C)c1ccc(OCCOc2c(Cl)cc(C=C3C(=O)NC(=O)NC3=O)cc2OC)cc1 (stereo not drawn)	-0.255	.
CCN(CC)CCn1c2c(c(SCC(=O)Nc3cc(C)on3)nc1=O)CCCC2	.	-0.85
O=C(Nc1cccc(Cl)c1)c1cc(F)cc2c1OCOC2	4.45	-0.2
CN=C1S/C(=C\c2ccc(OCc3ccccc3F)cc2)C(=O)N1C	-0.11	.
CC(C)Oc1ncc(C(F)(F)F)cc1Cl	-0.39	0.15
O=C(CCn1nc(-c2ccc(Cl)cc2)c2ccccc2c1=O)NCCN1CCOCC1	0.18	-0.35
CCOC(=O)C(Cc1ccccc1)NC(=O)OCCc1cccc(OC)c1 (stereo not drawn)	-0.225	.
CCc1ccccc1NC(=O)CCOc1ccccc1	0.115	-0.55
O=C(CN1C(=O)CSc2ccc(C(F)(F)F)cc21)Nc1cccc(C(F)(F)F)c1	-1.23	1.55
CCCCn1c(SC=O)nc2ccccc2c1=O	.	-0.9
CC(=O)N(C)c1ccc(NC(=O)c2cc(-c3ccccc3)nc3ccccc23)cc1	0.04	.
OCc1nc2ccccc2n1Cc1ccccc1	0.235	-0.95
O=C(O)c1ccc(CO)cc1	-0.735	-0.8
O=C(c1ccccc1S(=O)(=O)NCc1ccccc1)N1CCCCC1	-0.34	0.15
COc1ccc(C2C(C(=O)OC(C)C)=C(C)N=c3s/c(=C\c4ccc(Br)o4)c(=O)n32)cc1 (stereo not drawn)	-0.84	.
CCCCN(C)C(=O)c1ccc(CS(=O)(=O)c2ccccc2C)o1	-0.29	-0.3
COc1cccc(-c2cc(C(=O)N3CCN(c4ccccc4)CC3)on2)c1	-0.67	0.9
CCc1cc2c(C)cc(=O)oc2cc1OCC(=O)NCC1CCCCC1	13.8	0
O=C(CCCOc1ccc(Cl)cc1Cl)Nc1c[nH]c(=O)[nH]c1=O	0.205	-0.75
Cc1sc2ncn(-n3cccc3)c(=O)c2c1-c1ccccc1	-0.555	1.7
CN1CCC(N(C(=O)C(c2ccccc2)c2ccccc2)C2CCN(Cc3ccccc3)CC2)CC1	0.03	.
Cc1cc(C(=O)COC(=O)CSc2nnc(NC3CCCCC3)s2)c(C)n1C1CC1	.	0.75
CCOC(=O)c1c(-c2ccccc2)oc2ccc(O)c(CN3CCN(C)CC3)c12	i	-0.35
Cc1noc(C)c1S(=O)(=O)N=S(C)(=O)c1ccc(Cl)cc1 (stereo not drawn)	-0.08	0.6
O=C(Cc1ncc(C(F)(F)F)cc1Cl)N1CCN(c2ccc(F)cc2)CC1	0.36	0.8
COC(=O)c1c(N)sc2c1CCCC2	-0.455	0.05
Cc1nc(NCc2ccco2)c2cc(-c3ccccc3)sc2n1	42.3	-0.5
CCN1CCN(C(=O)c2ccc(I)cc2)CC1	-0.42	-0.65
COC(=O)C1CCCN1C(=O)c1ccccc1 (stereo not drawn)	0.725	0.7
Cn1c(=O)cc(OCCCC(=O)N2CCCCC2)c2ccccc21	0.33	-1.2
COc1cc(NC2c3ccccc3C(=O)N2Cc2ccco2)cc(OC)c1OC (stereo not drawn)	-0.21	0.4
CCOC(=O)c1c(NC(=O)Cc2ccc(OC)cc2)sc(C(=O)Nc2cccc(Cl)c2C)c1C	0.805	.
O=C(Cc1n[nH]c(=O)c2ccccc12)N1CCc2ccccc2C1	.	-0.55
O=C1Nc2ccccc2SC1CC(=O)N1CCN(Cc2ccccc2F)CC1 (stereo not drawn)	.	-0.25
COc1ccc(C2CC(c3ccccc3)=NN2C(=O)c2cccs2)cc1 (stereo not drawn)	2.78	.
Cc1ccc(OCC(=O)NC(=S)N2CCOCC2)cc1	.	1.65
CC(=O)NC(CC(=O)Nc1ccc2c(c1)OCO2)c1ccccc1 (stereo not drawn)	.	-0.65
CC(C)CC(C(=O)Nc1nnc(C(C)C)s1)N1C(=O)c2ccccc2C1=O (stereo not drawn)	-0.145	1.65
CCOc1cccc(/C=N/n2c(C)n[nH]c2=S)c1	-0.475	-0.45
CCSc1nc(Cl)c2ccccc2n1	.	-0.15
O=C(c1ccc(F)cc1)c1cnc(Nc2ccc(Cl)c(Cl)c2)s1	0.445	.
O=C(NCCC(=O)N1CCCCCC1)c1ccccc1Cl	.	-0.8
Cc1ccc2nsnc2c1NC(=O)Cc1ccc(Cl)cc1	1.08	0.6
CCCCC[C@H](O)/C=C/[C@H]1[C@H](O)CC(=O)[C@@H]1CCCCCCC(=O)O	-0.97	.
Cc1ccccc1Nc1nnc(C)c(=O)n1N	1.25	-0.45
The listing continues:
SMILES	Ba CapD inh	AID504770
Cc1cc(NC(=O)COC(=O)C(C)N2C(=O)C3CC=CCC3C2=O)no1 (stereo not drawn)	.	-0.6
COc1ccc2c(c1)nc(COc1ccccc1)n2C	0.495	0.45
O=C1c2ccccc2C(=O)N1Cc1nc2ccc(Br)cn2c1NC1CCCCC1	-0.09	0
Cc1ccc(-c2csc(-c3cc4ccc(O)cc4oc3=O)n2)cc1C	0.385	.
O=C(CCCN1C(=O)c2ccccc2C1=O)NC1CCCC1	-0.175	-0.75
O=C(O)c1ccc2c3ccc(C(=O)O)c4c(C(=O)O)cc5c(c6c(cc(C(=O)O)c1c26)S5(=O)=O)c43	.	-0.5

The list is partial, so the mix of outcomes need not match the whole.
